CFTR F508del = total CFTR protein upregulators, primary screen, cell-based, HeLa F508del-CFTR, immunofluorescence, viability (AID 1224863); 10,000 tested, 0.1% active; calls, or highest fold increase where a dose series was run; HeLa F508del-CFTR, immunofluorescence total CFTR, 24 h; by the record results were divided by relative cell number; some inactives read as strong as hits; in the data nearly all actives have a first-pass fold increase above 1.5; a few of its hits are not listed in these tables;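 further: total CFTR protein by anti-CFTR immunofluorescence in fixed cells; first pass at 25 µM or 10 µg/mL by library and series up to twice that; 1 = untreated cells; first-pass hits also needed half or more of the cells alive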
CFTR F508del fold 25 µM = recorded beside CFTR F508del, whose call it bears; fold increase; measured here: primary screen single dose 25 uM; library dosed in µM
CFTR F508del fold 10 ug/mL = second read-out of CFTR F508del, no call of its own (marks repeat the call); fold increase; measured here: primary screen 10 ug/mL
CFTR F508del viability 25 µM = recorded beside CFTR F508del, whose call it bears; viability, %; measured here: primary viability 25 uM; library dosed in µM;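 0% = killed and 100% = untreated cells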
CFTR F508del viability 10 ug/mL = second read-out of CFTR F508del, no call of its own (marks repeat the call); viability, %; measured here: primary viability 10 ug/mL;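 0% = killed and 100% = untreated cells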
Starred values were filed as active, the others as inactive; i = inactive; · = no result given; & = joins results of further samples. The list is partial; the hit share may differ from the screen's.

SMILES | CFTR F508del | CFTR F508del fold 10 ug/mL | CFTR F508del viability 10 ug/mL | others
O=S(=O)(c1ccc(F)c(F)c1)N1CCN(Cc2ccncc2)CC1 | i | 1 | 100.0
NCCNc1ncccc1C(F)(F)F | i | 1.12 | 99.0
CCn1c(C2CC2)nn(CN(C)CC(=O)NC(C)(C)C)c1=S | i | 1.09 | 101.0
O=C(/C=C/C1=Cc2cc(Br)ccc2OC1)c1ccc([N+](=O)[O-])cc1 | i | 0.91 | 98.0
COc1ccc2c(c1)CC(=O)NCC2 | i | 1.16 | 104.0
N#Cc1cccc(CSc2nnc(C3CC3)n2C2CC2)c1 | i | 0.97 | 92.0
O=c1cc(CN2CCCCC2)[nH]c(=O)[nH]1 | 1.28 | 1.27 | 68.0
COCCn1c(=S)[nH]c2ccccc2c1=O | i | 1.13 | 95.0
N#Cc1cc(-c2nc(-c3ccccc3)cs2)c(N)nc1SCC1CCCCO1 (centres undefined) | i | 0.96 | 98.0
CC(C)Nc1nc(-c2ccc(Br)s2)cs1 | i | 0.91 | 93.0
COC(=O)[C@H](Cc1ccccc1)NC(=O)[C@@H](N)CC(=O)O | i | · | · | CFTR F508del fold 25 µM=1.15;CFTR F508del viability 25 µM=92.0
CN(C)S(=O)(=O)N1CCN(CCOc2cccc(F)c2)CC1 | i | 0.99 | 99.0
CN1C[C@@H]2c3ccccc3Oc3ccc(Cl)cc3[C@H]2C1 | i | · | · | CFTR F508del fold 25 µM=0.94;CFTR F508del viability 25 µM=83.0
C=C1CC[C@H](O)C/C1=C/C=C1\CCC[C@]2(C)C([C@H](C)/C=C/[C@H](C)C(C)C)CC[C@@H]12 (some centres undefined) | i | · | · | CFTR F508del fold 25 µM=1.15;CFTR F508del viability 25 µM=102.0
Cc1nnc(COC(=O)c2nn(-c3ccccc3)c(=O)c3ccccc23)o1 | i | 1.14 | 107.0
O=C(CC1C=CCC1)NCC(c1cccs1)N1CCOCC1 (centres undefined) | i | 1.05 | 94.0
O=C1c2ccccc2S(=O)(=O)NN1Cc1nnc(-c2ccccc2Br)o1 | i | 1.04 | 94.0
O=C(CN1CCN(c2ccc3nnnn3n2)CC1)N1CCCC1 | i | 0.99 | 114.0
CC1(C(=O)NCCCN2C(=O)NC3(CCCC3)C2=O)CC1(Cl)Cl (centres undefined) | i | 0.92 | 100.0
C=CCNC(=O)NC(=O)CN(Cc1nccn1C(F)F)C1CC1 | i | 1.18 | 83.0
CCOc1nc2cccc(C(=O)OC(C)OC(=O)OC3CCCCC3)c2n1Cc1ccc(-c2ccccc2-c2nn[nH]n2)cc1 (centres undefined) | i | · | · | CFTR F508del fold 25 µM=0.82&0.83;CFTR F508del viability 25 µM=90.0&109.0
COc1ccc(OC)c(CN(C2CC2)S(=O)(=O)c2ccc(Br)cc2)c1 | i | 0.89 | 83.0
NS(=O)(=O)c1ccc(NC2CCc3ccccc32)c([N+](=O)[O-])c1 (centres undefined) | i | 1 | 81.0
CC(=O)Oc1cc2c(s1)CCN([C@H](C(=O)C1CC1)c1ccccc1F)C2 | i | · | · | CFTR F508del fold 25 µM=1.11;CFTR F508del viability 25 µM=88.0
O=C(Nc1cc2c(cc1Br)OCCO2)C1CC2CCCC(C1)C2=O (centres undefined) | i | 1.13 | 96.0
O=S(=O)(NCCNc1ncc(C(F)(F)F)cc1Cl)N1CCCCCC1 | i | 0.85 | 94.0
CCCCn1c(SCc2nnc(-c3ccco3)o2)n[nH]c1=O | i | 1.01 | 83.0
COCCOC(=O)c1c(NC(=O)CN2CCCC2c2cccn2C)sc(C(N)=O)c1C (centres undefined) | i | 0.98 | 100.0
CC(=O)c1cc(C(=O)NCCc2ccc(Br)s2)n(C)c1 | i | 1.05 | 105.0
Cc1nn(C2CCS(=O)(=O)C2)c(C)c1CN(C)CN1C(=O)C(=O)N(C2CCCC2)C1=O (centres undefined) | i | 1.1 | 115.0
CCCc1cc(C(=O)NC(CCC(=O)OC)C(=O)OC)sc1C (centres undefined) | i | 1.04 | 103.0
CN(CC1COc2ccccc2O1)S(=O)(=O)c1ccccc1OC(F)(F)F (centres undefined) | i | 0.92 | 83.0
OC(Cn1cncn1)(Cn1cncn1)c1ccc(F)cc1F | i | · | · | CFTR F508del fold 25 µM=1.04&1.02&1.05;CFTR F508del viability 25 µM=105.0&90.0&86.0
C[C@@H](O[C@H]1OCCN(Cc2n[nH]c(=O)[nH]2)[C@H]1c1ccc(F)cc1)c1cc(C(F)(F)F)cc(C(F)(F)F)c1 | i | · | · | CFTR F508del fold 25 µM=0.9&0.76;CFTR F508del viability 25 µM=84.0&75.0
N#Cc1cccc(CN2CCOc3ccccc32)c1 | i | 1.15 | 79.0
Cn1nc(CC(=O)N2CCc3ccccc32)c2ccccc2c1=O | i | 1.05 | 84.0
O=C1CC2(CCCC2)C(=O)N1Cc1ccc(Cl)c(Cl)c1 | i | 1.02 | 99.0
CC1(C)CC(NCc2ccc(F)c(F)c2)CC(C)(C)N1 | i | 1.03 | 98.0
O=S(=O)(/C=C/c1ccccc1)N(Cc1ccc2c(c1)OCO2)C1CCCC1 | i | 0.96 | 84.0
O=S(=O)(NCCSc1ccc(Cl)cc1)c1ccc2c(c1)OCCCO2 | i | 0.88 | 73.0

The closing 2 records of the section above are carried over, then new ones follow:
SMILES | CFTR F508del | CFTR F508del fold 10 ug/mL | CFTR F508del viability 10 ug/mL | others
O=S(=O)(/C=C/c1ccccc1)N(Cc1ccc2c(c1)OCO2)C1CCCC1 | i | 0.96 | 84.0
O=S(=O)(NCCSc1ccc(Cl)cc1)c1ccc2c(c1)OCCCO2 | i | 0.88 | 73.0
CC(C)C(NC(=O)C1CC(=O)N(CC(F)(F)F)C1)c1cccs1 (centres undefined) | i | 0.92 | 92.0
CCCCC(C)(O)C/C=C/[C@H]1[C@H](O)CC(=O)[C@@H]1CCCCCCC(=O)OC (some centres undefined) | i | · | · | CFTR F508del fold 25 µM=1.02;CFTR F508del viability 25 µM=86.0
CCC(CC)NC(=O)Cn1cc(Br)c(=O)[nH]c1=O | i | 0.97 | 105.0
C=CCn1c(SCC(=O)c2ccc[nH]2)nc2c(oc3ccccc32)c1=O | i | 1.08 | 94.0
Cc1csc(/C(C#N)=C\c2cn(CCC#N)nc2-c2ccc3c(c2)OCO3)n1 | i | 0.78 | 78.0
Cc1noc(C)c1C(=O)OCC(=O)N1CCC(C(N)=O)CC1 | i | 1.07 | 110.0
COc1ccc(C2CCCCCN2S(=O)(=O)N2CCC(C)CC2)cc1 (centres undefined) | i | 0.95 | 103.0
COc1cccc(Nc2nnc(SC)s2)c1 | i | 0.89 | 76.0
O=C(NCCSc1ccccc1)C12CC3CC(CC(Cl)(C3)C1)C2 | i | 0.89 | 94.0
Nc1ccccc1N1CCc2sccc2C1 | i | 1.08 | 79.0
O=C(OCc1coc(-c2cccs2)n1)c1sccc1-n1cccc1 | 1.38 | 1.6 | 83.0
CN1/C(=C\C(=O)c2c(F)c(F)c(F)c(F)c2F)C(C)(C)c2ccccc21 | i | 0.99 | 86.0
CCC1(CC)NC(=O)N(Cc2nc(N)nc(N)n2)C1=O | i | 1.1 | 89.0
CN(C1CCS(=O)(=O)C1)S(=O)(=O)c1ccc2c(c1)CCC(=O)N2 (centres undefined) | i | 1.01 | 98.0
CCCCOCCCNC(=O)Cc1c(C)nc2nc(SC)nn2c1C | i | 1.08 | 106.0
O=C(OCc1cc([N+](=O)[O-])cc2c1OCOC2)c1ccc(N2C(=O)c3ccccc3C2=O)cc1 | i | 1.15 | 113.0
O=C(O)c1ccc(S(=O)(=O)N(Cl)Cl)cc1 | i | · | · | CFTR F508del fold 25 µM=1.1;CFTR F508del viability 25 µM=86.0
CC(C)C(NS(=O)(=O)N1CCOCC1)c1ccccc1 (centres undefined) | i | 1.1 | 88.0
CCCCN(C(=O)C1CC(=O)N(c2ccc3c(c2)OCCO3)C1)c1c(N)n(CCC)c(=O)[nH]c1=O (centres undefined) | i | 1.04 | 91.0
O=C(OCc1nnc(-c2ccccc2)o1)c1ccc2c(c1)OCCO2 | i | 0.99 | 108.0
c1cc2c(cc1C1=NNC(=NCCCN3CCOCC3)SC1)OCCO2 | i | 0.88 | 91.0
C=CCN(CN1C(=O)NC2(CCC(C)CC2)C1=O)C1CCc2ccccc21 (centres undefined) | i | 1.12 | 104.0
N#Cc1ccc(C(=O)OCC(=O)c2ccc3c(c2)OCCO3)cc1 | i | 1 | 87.0
O=S(=O)(Nc1ccc(F)c(F)c1F)c1ccc(Cl)c2ncccc12 | i | 0.92 | 96.0
CC(C)n1c(=O)[nH]c2cc(C(=O)O)ccc2c1=O | i | 0.95 | 91.0
CC(Cc1ccc(Cl)cc1)NC(=O)C1(C)CC1(Cl)Cl (centres undefined) | i | 0.98 | 94.0
COc1ccc([N+](=O)[O-])cc1CN | i | 1.02 | 81.0
CC(C)n1ncc2cc(NS(=O)(=O)c3ccc(S(C)(=O)=O)cc3)cnc21 | i | 1.08 | 80.0
COc1ccc(OC)c(C2CCCN2CN2C(=O)NC3(CCCCCCC3)C2=O)c1 (centres undefined) | i | 1.17 | 104.0
CN(Cc1ccc(F)cc1)Cn1nc(-c2ccc(F)cc2)n(C)c1=S | i | 1.01 | 110.0
O=C1COc2ccc(C(=O)/C=C/c3ccc(N4CCOCC4)cc3)cc2N1 | 7.94 | 4.35 | 92.0
CC(C)N(CC1CC1)S(=O)(=O)c1ccccc1Br | i | 0.95 | 74.0
Cc1ccc(C2=N/C(=C/c3cccs3)C(=O)O2)s1 | i | 1.12 | 103.0
O=C(O)c1cc(=O)[nH]c(=O)[nH]1 | i | · | · | CFTR F508del fold 25 µM=0.97;CFTR F508del viability 25 µM=101.0
CC(C)(C)OC(=O)N1CCN(c2ccc(S(C)(=O)=O)cc2[N+](=O)[O-])CC1 | i | 1 | 81.0
Cc1ccc(-c2nc(N)n[nH]2)s1 | i | 1.01 | 99.0
O=C(CCCCC1SCC2NC(=O)NC21)Nc1ccc(F)cc1 (centres undefined) | i | 1.01 | 100.0
Cc1nc(N2CCCCC2)c2c3c(sc2n1)CCCC3 | i | 0.94 | 84.0
Fc1ccc(CN(Cn2nc3n(c2=S)CCCCC3)C2CC2)cc1 | i | 1.04 | 92.0
Oc1c(Cl)cc(Cl)c2ccc(/C=C/c3cnc(N4CCCC4)nc3)nc12 | i | 1.03 | 88.0

The last 3 entries of the part above lead into the next:
SMILES | CFTR F508del | CFTR F508del fold 10 ug/mL | CFTR F508del viability 10 ug/mL | others
Cc1nc(N2CCCCC2)c2c3c(sc2n1)CCCC3 | i | 0.94 | 84.0
Fc1ccc(CN(Cn2nc3n(c2=S)CCCCC3)C2CC2)cc1 | i | 1.04 | 92.0
Oc1c(Cl)cc(Cl)c2ccc(/C=C/c3cnc(N4CCCC4)nc3)nc12 | i | 1.03 | 88.0
CC1CCN(Cc2ncc(-c3ccccc3)o2)C2CCCCC12 (centres undefined) | i | 0.99 | 78.0
Cc1cc(C)cc(-c2nnc(SC3CCCCC3=O)o2)c1 (centres undefined) | i | 1.07 | 112.0
Cc1noc(C(C)C)c1C(=O)NC1CCCC1 | i | 1 | 101.0
O=C(/C=C/c1ccco1)NCC1(N2CCOCC2)CCCCC1 | i | 0.82 | 78.0
O=[N+]([O-])c1cc(S(=O)(=O)C(F)(F)F)ccc1N1CCC1 | i | 0.93 | 89.0
Cc1cc(C)n2nc(SC(C)C(=O)c3ccc4c(c3)CCC4)nc2n1 (centres undefined) | i | 1.02 | 82.0
Nc1nccnc1C(=O)NC1CCCCCC1 | i | 0.95 | 78.0
C#Cc1cccc(Nc2ncnc3cc(OCCOC)c(OCCO)cc23)c1 | i | · | · | CFTR F508del fold 25 µM=0.82;CFTR F508del viability 25 µM=85.0
CCOC(=O)NC(=O)CSc1nnc(SC)s1 | i | 1.14 | 98.0
Cc1noc(C)c1S(=O)(=O)N1CCN(C(C)C(=O)Nc2sc3c(c2C(N)=O)CCC3)CC1 (centres undefined) | i | 0.92 | 96.0
CN(C)CC/C=C1\c2ccccc2Sc2ccc(Cl)cc21 | i | · | · | CFTR F508del fold 25 µM=0.64;CFTR F508del viability 25 µM=43.0
CC(C)CCCNC(=O)C(CC(C)C)N1C(=O)C2CC=CCC2C1=O (centres undefined) | i | 0.96 | 103.0
O=C(OCc1nc2sc3c(c2c(=O)[nH]1)CCCC3)c1ccc(I)cc1 | i | 1.02 | 97.0
COc1ccc(CN2CCN(S(=O)(=O)N3CCN(C)CC3)CC2)cc1F | i | 0.88 | 92.0
C[C@H]1O[C@H](O[C@H]2[C@H](O)[C@@H](O)[C@@H](O[C@H]3[C@H](O)[C@@H](O)[C@H](O)O[C@@H]3CO)O[C@@H]2CO)[C@H](O)[C@@H](O)[C@@H]1N[C@H]1C=C(CO)[C@@H](O)[C@H](O)[C@H]1O | i | · | · | CFTR F508del fold 25 µM=1;CFTR F508del viability 25 µM=83.0
CCC(CC)NC(=O)c1sc(NC(=O)c2ccco2)cc1C | i | 0.97 | 89.0
Cc1cc(C)cc(OCc2nnc(NCC3CCCO3)s2)c1 (centres undefined) | i | 1.01 | 87.0

Sorted by SMILES length (lowest first): some entries from above
SMILES | CFTR F508del | CFTR F508del fold 10 ug/mL | CFTR F508del viability 10 ug/mL | others
CCOC(=O)NC(=O)CSc1nnc(SC)s1 | i | 1.14 | 98.0
CN(C)CC/C=C1\c2ccccc2Sc2ccc(Cl)cc21 | i | · | · | CFTR F508del fold 25 µM=0.64;CFTR F508del viability 25 µM=43.0
Cc1noc(C)c1S(=O)(=O)N1CCN(C(C)C(=O)Nc2sc3c(c2C(N)=O)CCC3)CC1 (centres undefined) | i | 0.92 | 96.0

Source: PubChem
